H5N1 CPE: MDCK cell protection from H5N1 avian flu; cytopathic effect, luminescence, 72 h; hits give high values; no value below 0 was filed and about half of the inactive calls have no number; reference of the scale not given here; inhibition, % at 50 µM; actives 0.07% (n = 96,000); AID 740, 2007; in the data active = inhibition above about 25%
* = called active by the depositor; i = inactive. An excerpt. The share of hits here may be higher or lower than overall.

structure,H5N1 CPE
O=C(NC(Cc1c[nH]c2ccccc12)c1nnc2n1CCCCC2)c1ccccc1 (stereo not drawn),i
Cc1ccc(-c2nc3ccccc3[nH]2)s1,i
Cc1[nH]c(C)c(C(=O)O)c1CNC1CCCCC1C (stereo not drawn),0.1
O=C(NCc1ccc(C(F)(F)F)cc1)C12CN(Cc3ccccc3)CC1C(c1cccc([N+](=O)[O-])c1)=NO2 (stereo not drawn),i
O=C1CN=C(Nc2ccccc2)N1Cc1cccs1,i
O=S(=O)(NC1CCCCCCC1)c1cccs1,i
CC1(C)Cc2c(sc3c2c(=N)n(Cc2ccco2)c(=O)n3Cc2ccccc2)CO1,1.4
Cc1cccc(NS(=O)(=O)c2ccc(Oc3ccccc3)cc2)n1,0.3
O=C(CSc1nc2ccccc2n1S(=O)(=O)c1ccccc1)N1CCCCC1,i
Cc1cc(C)nc(SCC(=O)O)n1,0.5
Cc1ccc(C(=O)NCCOC23CC4CC(CC(C4)C2)C3)cc1,9.1
CCOC(=O)C1=NN(c2cccc(C)c2)C2(S1)SC(C(C)=O)=C(C)N2c1ccccc1 (stereo not drawn),i
CCOC(=O)c1oc2cccc(O)c2c1CN(Cc1ccccc1)C(C)=O,i
c1ccc(Cn2nnc3c(N4CCOCC4)ncnc32)cc1,i
COc1cc2cc3c(N)c(C(=O)Nc4sc(C)c(C)c4C#N)sc3nc2cc1OC,0.4
CCC1Oc2ccccc2N(Cc2ccccc2C)C1=O (stereo not drawn),i
CCOC(=O)C1CCCN(CCC(=O)Nc2cccc(F)c2)C1 (stereo not drawn),0.7
O=C(CN(C(=O)CSc1nc2ccccc2o1)c1cccc(F)c1)NC1CCCCC1,i
Cc1ccc(Cn2nnc3c(=O)[nH]c(C4CCN(S(=O)(=O)c5ccc(C)cc5)CC4)nc32)cc1,2.2
COc1ccc(Nc2nc(N)nc(CN3CCN(c4ccccn4)CC3)n2)cc1,0.3
Nc1nc2ccc(N3CCOCC3)cc2s1,0.3
O=C(NCC1CCCO1)c1cccs1 (stereo not drawn),0.6
CC(C)NC(=O)CCNC(=O)c1ccc(F)cc1,0.2
CC(C)CC(=O)NC(=S)Nc1ccc(NC(=O)c2cccs2)cc1,i
CCOC(=O)CSC(C)C(=O)Nc1nnc(C(C)C)s1 (stereo not drawn),1.1
O=c1c2cn[nH]c2[nH]c(=S)n1-c1ccccc1F,i
COc1ccc(OC)c(-c2cc(C(=O)NCc3ccco3)no2)c1,i
Cc1ccc(SCC(=O)NCCSC(C)(C)C)cc1,1.3
Cc1ccc(NC(=O)N2CCOCC2)c(C)c1,i
O=C(NC1CCCCCCC1)c1c(O)c2ccccc2[nH]c1=O,i
CCCCNC(=S)NNC(=O)c1sccc1C,i
CCC(=O)c1cc(F)c(N2CCN(S(=O)(=O)c3ccc(C)cc3)CC2)cc1C,3.0
CCn1c(=O)cc(OCC(=O)N(C)C2CCCCC2)c2ccccc21,i
O=C(CC12CC3CC(C1)CC(CC(=O)N1CCCC1)(C3)C2)N1CCCC1,i
CC(=O)c1c(N2CCCCC2)nc(=S)n(-c2ccccc2)c1C,0.4
Cc1cccc(Cn2ncc(Cl)c(Cl)c2=O)c1,i
COc1ccc(NC(=O)CC2SC(=NCc3ccccc3OC)NC2=O)cc1 (stereo not drawn),i
Cc1cc(NC(=O)CN2C(=O)NC(Cc3ccccc3)C2=O)no1 (stereo not drawn),i
CSc1nnc2n(-c3ccc(C)cc3)c(=O)c3c4c(sc3n12)COC(C(C)C)C4 (stereo not drawn),i
CCCCOc1ccc(C(=O)N/C(=C\c2cccc([N+](=O)[O-])c2)C(=O)OC(C)C)cc1,i
CC(C)(Oc1ccc(Cl)cc1)C(=O)OCn1nnc2ccccc2c1=O,0.9
Cc1nc(C(=O)Nc2ccc(F)cc2)nn1-c1ccc([N+](=O)[O-])cc1,i
N#Cc1ccc(Oc2ccc(/C=N/O)cn2)cc1,i
Oc1ccccc1OCc1nc2ccccc2s1,0.3
C#CCSc1nnc(-c2ccc(OC)cc2)o1,2.7
O=C(Nc1nc(-c2nc3ccccc3s2)cs1)C1COc2ccccc2O1 (stereo not drawn),i
O=P(CCN1CCCCC1)(c1ccccc1)c1ccccc1,1.6
COc1ccc(OC)c(NC(=O)Cn2c(-c3ccc(Cl)cc3)noc2=O)c1,1.3
Cc1ccc(NC(=O)c2cccc3c2C(=O)N(C2CCCCC2)C3)cc1,0.9
Nc1ccc(Nc2ccccc2N)cc1,i
O=C(c1ccccc1-c1nc(-c2ccc(Cl)cc2)no1)N1CCCC1,i
O=C1CCCCC1C(Nc1ccc(Br)cc1)c1ccccc1 (stereo not drawn),i
COc1ccnc(Oc2ccc(C)cc2C)c1C#N,i
CCc1ccc(NC(=O)CSc2nnc(Cc3cccn3C)n2-c2ccc(F)cc2)cc1,i
C=CCn1c(SCCC)nc(O)cc1=O,i
CCCCCCCCS(=O)c1sc2nc(C)cc(C)c2c1N (stereo not drawn),0.3
CCOC(=O)N1CCN(C(=O)Cn2c(C)cc3ccccc3c2=O)CC1,i
COc1ccc(OC)c(S(=O)(=O)n2cnc3cc(C)c(C)cc32)c1,2.4
COc1ccc(C)cc1S(=O)(=O)N(CC(=O)Nc1cccc([N+](=O)[O-])c1)c1cc(C)cc(C)c1,i
CCCSc1nnc(CN2CCOCC2)n1C,i

(next part)
structure,H5N1 CPE
Cc1ccc2cc(CCNC(=O)c3ccc4c(c3)OCO4)c(=O)[nH]c2c1,1.1
Cc1ccnc(NC(=O)c2ccc(N3C(=O)CCC3=O)cc2)c1,0.3
COc1ccc(CNC(=O)Cn2cc3c(n2)CCCCC3)cc1,i
CC(=O)Nc1ccc(NCN2C(=O)C3C4CCC(C4)C3C2=O)cc1 (stereo not drawn),i
O=C(NCc1ccc(F)cc1)c1cnn2ccccc12,7.6
Cc1cc(OCc2nn[nH]n2)c2c(C)c(CC(=O)O)c(=O)oc2c1,1.2
COc1ccc(CNC(=O)CSc2nnnn2-c2ccc(O)cc2)cc1,1.1
Cc1ccc(CNC(=O)c2ccccc2CCc2ccccc2)cc1,0.9
CC1=CC(=C2N=C(c3ccccc3)OC2=O)C=C(C)O1,i
O=C(O)CCCC(=O)Nc1ccccc1-n1ccnc1,i
CN1C=CC=C/C1=C1\SC(=S)N(C2CCCCC2)C1=O,i
Cc1cc(C)nc(NS(=O)(=O)c2ccc(NC(=O)Cn3c(=O)oc4ccccc43)cc2)n1,i
CCNC(=S)NN=C1CCC(C(C)(C)C)CC1 (stereo not drawn),i
N#CC1=C(N)Oc2c(ccc3ccccc23)C1c1cccs1 (stereo not drawn),1.7
CCOCCCNC(=O)c1ccc(NC(C)=O)cc1,0.1
Cc1cc2ccccc2c(=O)n1CC(=O)Nc1ccc2c(c1)OCCO2,0.2
COc1ccc(-c2cc(C#N)nc(N3CCN(c4ccccc4)CC3)n2)cc1,0.6
COc1ccc(Nc2nnc(SCC(=O)c3cc(C)n(CC4CCCO4)c3C)s2)cc1 (stereo not drawn),0.8
Cc1nc2ccccc2c2oc(C(=O)NCCCN3CCCC3=O)cc12,1.6
C/C(=N\NS(=O)(=O)c1ccc(Cl)c([N+](=O)[O-])c1)c1ccc(C)o1,1.1
O=C(Nc1cccc(C(F)(F)F)c1)C1CCCN(c2ncccn2)C1 (stereo not drawn),i
CC(C)(C)n1ncc2c(=O)n(CC(=O)Nc3ccc4c(c3)OCCO4)cnc21,1.1
CCC(C)NC(=O)c1cn(C)c(=O)c2cc(OC)c(OC)cc12 (stereo not drawn),0.5
Cc1ccc2nsnc2c1N(S(C)(=O)=O)S(C)(=O)=O,0.6
CC1(C)Cc2ccccc2-c2nnc(SCc3ccc(C#N)cc3)n21,0.2
COC(=O)c1nn(-c2ccccc2)c(Cl)c1/C=N/OCc1ccc(C)cc1,i
Cc1ccc(CN2C(=O)CCC2C(=O)NCc2cccnc2)cc1 (stereo not drawn),i
CN(C(=O)C12CC3CC(CC(C3)C1)C2)C1CCS(=O)(=O)C1 (stereo not drawn),1.6
COc1ccc2cc(CN(CC3COCCO3)S(=O)(=O)c3ccccc3)c(=O)[nH]c2c1 (stereo not drawn),i
O=S(=O)(CCCc1ccccc1)c1ncn[nH]1,i
CCC1=C/C(=C\c2ccc3c(c2)OCO3)C(=O)S1,i
COc1cccc(OCCSc2nc(N)cc(N)n2)c1,i
O=C(NC1CCCCC1)n1c(=O)oc2cc(S(=O)(=O)N3CCCCC3)ccc21,0.6
O=C(Nc1nnc(SCc2ccccc2)s1)c1ccco1,1.4
O=C(CC(NS(=O)(=O)c1ccc(Cl)cc1)c1ccco1)NC1CCCC1 (stereo not drawn),i
O=C(N/N=C\c1cccc(Br)c1)c1ccccc1-n1cccc1,0.7
Cc1nnc(Nc2ccccn2)c2ccccc12,4.4
O=C(CNS(=O)(=O)c1ccc(Br)s1)N1CCCC1,0.1
Cc1ccc(NC(=O)CCC(=O)OCCCC(F)(F)C(F)(F)F)cc1,0.4
C=CCn1c(CCNC(=O)c2ccccc2F)nnc1SCc1nc2ccccc2c(=O)[nH]1,i
CS(=O)(=O)N1CCN(C(=O)Cc2ccccc2)CC1,0.7
CCCSc1nnc(Cn2c(=O)sc3ccccc32)n1C,i
CCOC(=O)Cc1csc(NC(=O)c2c(-c3ccccc3)noc2C)n1,0.7
O=C(O)c1cc(NC(=O)C2CCCO2)cc(NC(=O)C2CCCO2)c1 (stereo not drawn),0.4
N#Cc1cc2ccccc2nc1SCc1cccnc1,1.1
O=C(c1ccccc1)c1cn(CC(=O)N2CCCc3ccccc32)c2ccccc12,1.1
CCCN1C2CCCC1CC(NC(=O)NC1CCCCC1)C2 (stereo not drawn),i
CCOC(=O)c1c(C)n(C)c2ccc(O)c(S(=O)(=O)c3ccccc3)c12,2.0
O=C(COc1ccccc1)Nc1ccc(-c2nnc(-c3ccco3)o2)cc1,i
CCC(=O)N1CCc2cc(S(=O)(=O)NC(CC(C)C)C(=O)N3CCc4ccccc43)ccc21 (stereo not drawn),0.3
Cc1ccc(C(=O)NCc2ccco2)cc1Br,1.6
CC1=CC2=NC(=O)CC(C)(C(=O)N(CC(=O)NC(C)(C)C)Cc3cccs3)N2C=C1 (stereo not drawn),0.1
CN(C)/C(CN1CCOCC1)=C1\N=C(c2ccccc2)OC1=O,1.3
COc1ccc(OC)c(C(=O)c2coc3ccc(OC)cc23)c1,i
COc1ccc(S(=O)(=O)N(CC(N)=O)C2CCCCC2)cc1Cl,0.1
CCc1nnc(NS(=O)(=O)c2ccc(N/C=C\C(=O)c3ccc(C)cc3)cc2)s1,i
CC(=O)c1c(N2CCCCC2)nc(=S)n(Cc2ccccc2)c1C,0.7
Cn1c(=O)[nH]c(=O)c2c1nc(CN1CCOCC1)n2Cc1ccc(F)cc1,3.7
COc1cc2c(cc1OC)CN(C(=O)c1cc(S(=O)(=O)N3CCOCC3)ccc1Cl)CC2,0.8
Cc1cc(C(=O)CSc2nc3ccccc3n2CCC#N)c(C)n1Cc1cccs1,0.8

Structures above that contain a cyano group, in the order listed:
structure,H5N1 CPE
COc1cc2cc3c(N)c(C(=O)Nc4sc(C)c(C)c4C#N)sc3nc2cc1OC,0.4
N#Cc1ccc(Oc2ccc(/C=N/O)cn2)cc1,i
COc1ccnc(Oc2ccc(C)cc2C)c1C#N,i
N#CC1=C(N)Oc2c(ccc3ccccc23)C1c1cccs1 (stereo not drawn),1.7
COc1ccc(-c2cc(C#N)nc(N3CCN(c4ccccc4)CC3)n2)cc1,0.6
CC1(C)Cc2ccccc2-c2nnc(SCc3ccc(C#N)cc3)n21,0.2
N#Cc1cc2ccccc2nc1SCc1cccnc1,1.1
Cc1cc(C(=O)CSc2nc3ccccc3n2CCC#N)c(C)n1Cc1cccs1,0.8

New compounds follow:
structure,H5N1 CPE
CCOC(=O)c1c(-n2c(C)cc(C=C3C(=O)NC(=O)NC3=O)c2C)sc2c1CCCC2,0.2
Cc1ccnc(N2CCCC(C(=O)Nc3nnc(C)s3)C2)n1 (stereo not drawn),i
CCOc1cc(C(c2c(C)[nH][nH]c2=O)c2c(C)[nH][nH]c2=O)ccc1OC(=O)c1cccc([N+](=O)[O-])c1,0.3
CN(C(=O)COc1cc(=O)n(C)c2ccccc12)c1ccc(Cl)cc1,i
O=C(CN1C(=O)S/C(=C/c2cccs2)C1=O)N1CCOCC1,i
Cc1ccc(-c2nnc(N(C)C(=O)c3ccncc3)s2)cn1,0.9
CCOC(=O)c1ccc(NCc2ccc(N(C)C)cc2)cc1,i
CC1CCN(C(=O)CSc2nc3ccccc3[nH]2)CC1,i
Cc1nn(Cc2ccc([N+](=O)[O-])cc2)c(=O)n1-c1ccccc1,i
O=C(CSc1nc2ccccc2o1)Nc1cc(C(F)(F)F)ccc1N1CCOCC1,i
COCCNC(=O)CCCCCNS(=O)(=O)c1ccc(C)cc1,0.2
COc1ccc(C(=O)Nc2ccc3c(c2)OCO3)cc1OC,i
COc1ccc(S(=O)(=O)N(CCc2ccccc2)CC(=O)O)cc1,0.4
CC(C)=CC(=O)OCC(=O)Nc1nc(C)c(Cl)cc1Cl,i

A second format for some results above:
O=C(CSc1nc2ccccc2o1)Nc1cc(C(F)(F)F)ccc1N1CCOCC1
  H5N1 CPE: i
COCCNC(=O)CCCCCNS(=O)(=O)c1ccc(C)cc1
  H5N1 CPE: 0.2
COc1ccc(C(=O)Nc2ccc3c(c2)OCO3)cc1OC
  H5N1 CPE: i
